# HCMV UL50-53 inh: inhibitors of HCMV UL50-UL53 nuclear egress complex interaction | actives 0.15% (n = 190,000) | HTRF UL50-UL53 interaction, normalized percent inhibition | inhibition, % (test concentration not listed);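 active = both replicates at 50% or more, plus weaker picks with an unusually low signal ratio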;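 note: stock transfer was 100 nL into about 20 µL; 0% = negative control wells and 100% = wells with untagged competitor protein; inactives centre near -12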
# Sa growth inh: inhibitors of Staphylococcus aureus growth at 42 °C; S. aureus RN4220 growth, OD600, 20 h; stronger effect = lower value; relative growth, % (concentration not given with the values); actives 0.53% (n = 170,000);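 active = growth at 42 °C up to 50% and 20 or more points under that at 30 °C, or under 10% at both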;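 note: 300 nL library stock went into each well; scaled to the means of positive and negative controls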
# GIV-Gai inh: inhibitors of GIV GBA-motif binding to rat Galpha-i3; P08753; Galpha-i3/FITC-GIV peptide fluorescence polarization, 90 min; stronger effect = lower value; scaled: aluminum fluoride 0%, vehicle 100%; percent of control (FP), % (test concentration not listed); actives 0.42% (n = 210,000); AID 1224905;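 active = replicate mean at 85% of control or lower, very high polarization wells dropped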;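 note: wells of about 15 µL received 100 nL stock; the first replicate is given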
# Target sequence (P08753 whole entry, looked up): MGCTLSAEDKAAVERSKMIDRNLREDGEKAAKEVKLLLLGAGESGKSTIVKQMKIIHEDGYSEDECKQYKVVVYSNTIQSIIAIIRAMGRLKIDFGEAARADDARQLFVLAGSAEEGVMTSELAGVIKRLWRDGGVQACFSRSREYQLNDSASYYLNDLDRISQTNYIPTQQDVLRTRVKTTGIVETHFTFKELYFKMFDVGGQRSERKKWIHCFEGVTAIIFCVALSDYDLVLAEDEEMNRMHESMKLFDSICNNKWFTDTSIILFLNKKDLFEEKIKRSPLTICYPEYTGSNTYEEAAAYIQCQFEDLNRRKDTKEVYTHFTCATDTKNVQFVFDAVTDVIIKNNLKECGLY
# Sa growth inh second temp: recorded beside Sa growth inh, whose call it bears; relative growth, %; measured here: growth at 30 °C;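 optical density after 20 h as mean of two plates; 100% = untreated growth and lower means inhibition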
# Numbers without * were called inactive; . = not tested or not shown; & = joins results of further samples. Random draw from the library. About 0.82% of those tested had a hit in this group.
No.	molecule	HCMV UL50-53 inh	Sa growth inh	Sa growth inh second temp	GIV-Gai inh
1	CCn1cnc2sc(C(=O)N(Cc3ccc(N(C)C)cc3)Cc3ccco3)c(C)c2c1=O	.	96	99	107
2	O=C(COc1ccc(-c2nnco2)cc1)c1ccc[nH]1	-27	83	87	.
3	CCCCNS(=O)(=O)c1ccc2c(c1)CCN2C(=O)CCC(=O)O	-13	.	.	97
4	COc1cc(OC)c(NC(=O)C(NS(=O)(=O)c2cccc3nsnc23)c2ccccc2)cc1Cl (centres undefined)	-56	96	107	111
5	CCCn1nnc(NC(=S)NC(=O)c2cccs2)n1	-4	99	94	100
6	CC(=O)Nc1ccc(NC(=O)C(C)OC(=O)c2n[nH]c(=O)c3ccccc23)cc1 (centres undefined)	-11	101	81	.
7	Cc1ccc(-c2nc(SCC(=O)N3CCc4ccccc43)c3c(=O)n(C)c(=O)n(C)c3n2)cc1	.	87	89	100
8	C=CCn1c(CNC(=O)c2ccco2)nnc1SCc1nc2ccccc2c(=O)[nH]1	-2	107	104	102
9	Cc1ccc(NC(=O)CCNS(=O)(=O)c2cccs2)cc1F	-21	85	93	103
10	CCOC(=O)c1oc2ccccc2c1COC(=O)C1COc2ccccc2O1 (centres undefined)	-32	100	85	.
11	c1coc(C2Nc3c(ccc4ccccc34)C3OCCC23)c1 (centres undefined)	.	117	72	112
12	Cc1cc(C(=O)OCC(=O)NC2CCCC2)c(C)n1-c1ccccc1	-24	98	83	.
13	COc1ccc(NC(=O)COc2ccc(C)c(C)c2)cn1	-9	93	96	.
14	CCCCCn1c(-c2ccc(OC)c(OC)c2)nc2ccccc21	7	96	80	105
15	CCOC(=O)c1[nH]c2ccccc2c1NC(=O)c1ccc(OC)c(OC)c1	6	93	105	100
16	O=C(COc1ccccc1)NCCN1CCCC1	0	119	80	.
17	CCc1ccc(C(=O)Nc2ccc(N(CC)CC)cc2C)cc1	0	109	106	107
18	O=C(Cc1ccccc1)N1N=C(c2cccc(Br)c2)CC1(O)C(F)(F)F (centres undefined)	-19	.	.	101
19	c1ccc(Cn2c(CN3CCOCC3)nc3ccccc32)cc1	-5	75	80	97
20	Cn1c(CCC(=O)Nc2ccc(N3CCOCC3)cc2)nc(=O)c2ccccc21	-4	90	81	.
21	CNCc1sccc1C	-16	99	90	103
22	CCC(=O)Nc1cccc(NC(=O)c2cccs2)c1	-18	82	82	103
23	CCOC(=O)c1c(C)c(-c2ccccc2)n(CC(=O)Nc2ccc(OCC)cc2)c1C	-34	87	83	98
24	COc1ccccc1-c1nnc2sc(-c3cc(C)nc4ccccc34)nn12	-43	.	.	109
25	CC(NC(=O)c1cn(-c2ccc(F)cc2)nn1)c1cccs1 (centres undefined)	-21	81	84	107

# An excerpt of these results, screen by screen:
3) CCCCNS(=O)(=O)c1ccc2c(c1)CCN2C(=O)CCC(=O)O
20) Cn1c(CCC(=O)Nc2ccc(N3CCOCC3)cc2)nc(=O)c2ccccc21

Compound,3,20
HCMV UL50-53 inh,-13,-4
Sa growth inh,.,90
Sa growth inh second temp,.,81
GIV-Gai inh,97,.

# Additional results.
No.	molecule	HCMV UL50-53 inh	Sa growth inh	Sa growth inh second temp	GIV-Gai inh
26	COC(=O)CSc1cc(C(F)(F)F)nc2c(C(=O)OC)scc12	-6	87	82	107
27	CCCNC(=O)c1cnn2c(C)c(Cc3c(C)cc(C)cc3C)c(C)nc12	.	95	90	98
28	CC(C)CN(CC(C)C)C(=O)CN(C)S(=O)(=O)c1cccc2nsnc12	-124	.	.	97
29	Cc1nc(C)c(C(=O)NCCC(c2ccccc2)c2ccccc2)o1	-23	83	78	106
30	Cc1c(-c2ccc(Br)cc2)c(=O)oc2ccccc12	-14	89	79	.
31	O=C1c2ccccc2C(NCCc2ccccc2)N1CCc1ccccc1 (centres undefined)	4	115	91	.
32	CCOC(=O)c1ccc(NC(=O)CC2C(=O)N(c3ccc(F)cc3)C(=O)N2Cc2cccnc2)cc1 (centres undefined)	.	91	78	104
33	O=C(NC12CC3CC(CC(C3)C1)C2)C1=COCCO1	-24	116	85	.
34	Cc1cc(C(=O)OCC(=O)C(C)(C)C)c2ccccc2n1	-63	98	86	.
35	Cc1cccc(Cn2nc(C(C)(C)C)cc2C(=O)N2CCOCC2)c1	6	108	87	104
36	Cn1c(=O)c2c(-c3ccc(C(C)(C)C)cc3)c(NCc3ccccc3)oc2n(C)c1=O	1	.	.	100
37	Cc1ccc(C(=O)c2nsc(Cl)c2Cl)cc1	-6	118	95	.
38	c1ccc2c(c1)CC1(CCCCC1)n1nnnc1-2	7	88	86	102
39	CC(C)NCC(O)COc1c(F)cc(Br)cc1F (centres undefined)	-9	87	75	97
40	CCCn1c(NC(=O)CCNC(C)=O)nc2ccccc21	-2	111	90	.
41	O=C(NCCc1csc(-c2ccc(F)cc2)n1)c1cccc(F)c1	.	96	79	109
42	O=C(CSc1ncnc2sc3c(c12)CCCC3)c1ccc2c(c1)OCO2	0	.	.	99
43	COc1ccc(NC(=O)CCCn2nnc3ccccc3c2=O)cc1	-11	103	97	101
44	O=C(Nc1ccc(SC(F)(F)F)cc1)c1ccccn1	-14	95	83	.
45	CCOC(=O)Cc1csc(NC(=O)CN2C(=O)c3ccccc3C2=O)n1	-19	88	82	102
46	CCCCNC(=O)c1ccc2c(c1)NC(=O)C(CS(=O)(=O)Cc1ccc(C)cc1)N2 (centres undefined)	.	79	88	105
47	Cc1nn(C(=O)Nc2ccccc2F)c2ccccc12	-20	.	.	104
48	CCOC(=O)c1ccccc1NC(=S)N(C)Cc1ccccc1	.	147	86	103
49	CCOC(=O)c1c(C)n(-c2ccccc2)c2ccc(OC(=O)c3c(F)cccc3F)cc12	2	106	98	96
50	CCOc1ccccc1N=C1S/C(=C\c2ccc(N(C)C)cc2)C(=O)N1CCN1CCOCC1	-13	85	93	.

# Some values from the results shown:
# In Sa growth inh, no. 27 shows 95
# In GIV-Gai inh, no. 26 shows 107
# In Sa growth inh second temp, no. 35 shows 87

# Further compounds.
No.	molecule	HCMV UL50-53 inh	Sa growth inh	Sa growth inh second temp	GIV-Gai inh
51	CC1=C(C(=O)Nc2cc(C)ccn2)C(c2ccc(C)cc2)C2=C(CCCC2=O)N1 (centres undefined)	-3	85	87	98
52	O=C(NCc1cccs1)C1CCC(=O)N1C1CCCC1 (centres undefined)	4	94	84	102
53	COc1nc(C)ccc1-c1noc(-c2ccccc2)n1	9&-14	89	84	107&104
54	COc1ccc(NC(=O)CC2SC3=NCCN3C2=O)cc1 (centres undefined)	-6	93	84	102
55	O=C1Nc2ccccc2Oc2cc(Oc3ccccc3)ccc21	7	97	88	105
56	CC(C)Oc1ccc(C(=O)N2CCN(c3nc4c(F)cc(F)cc4s3)CC2)cc1	.	117	99	97
57	Cc1cccc(NC(=O)CC(c2ccccc2)c2ccccc2)n1	-9	116	69	103
58	CC(C)N1CC2(c3ccccc3)CN(C(C)C)CC(c3ccccc3)(C1)C2O (centres undefined)	-4	102	87	.
59	COc1cccc(CNC(=O)c2cc3cccc4c3n2CC(C)S4)c1OC (centres undefined)	.	100	101	108
60	CCOC(=O)CSc1nc2c(c(C3CC=CCC3)c1C#N)CCC2 (centres undefined)	-16	103	80	102
61	CN(C)c1nc(N(C)C)nc(N2CC(=O)N(N)C2=N)n1	-4	101	77	102
62	Cc1nc2c(sc3nc4c(c(-c5ccco5)c32)CCCC4)c(=O)o1	4	115	92	.
63	Cc1ccc(C)c(Cn2cnc3ccccc3c2=O)c1	-11&-17	98	95	103&102
64	Nc1nc2ccccc2n1CCN1CCCCC1	.	102	84	103
65	Cc1ccccc1NC(=O)Cn1c(=O)n(Cc2ccc3c(c2)OCO3)c(=O)c2ccccc21	-10	103	87	105
66	Cc1ccc(S(=O)(=O)c2nc(-c3ccco3)oc2SCc2ccccc2F)cc1	.	100	87	100
67	O=C(Cc1ccccc1)Nc1cccc(Cl)c1	7	107	104	102
68	CCCCNC(=O)c1cc2c(Cl)ccc3c2n1CC(CC)O3 (centres undefined)	-2	.	.	105
69	CCOC(=O)C(C)Sc1nc(-c2ccc(OC)cc2)c(C#N)c(=O)[nH]1 (centres undefined)	-28	95	103	99
70	CC(=O)c1ccc(Nc2ccc3cc(S(=O)(=O)N4CCCC4)ccc3n2)cc1	.	81	83	107
71	Cc1ccccc1NC(=O)c1ccc(NC(=O)N2CCSc3ncccc32)cc1	.	97	91	102
72	COc1cccc(N2CCN(C(=O)CN3CCSc4ccc(S(=O)(=O)N(C)C)cc43)CC2)c1	.	82	89	107
73	CCc1ccc(C(=O)c2cn(CC(=O)Nc3ccc(OC)c(OC)c3)c3ccc(C)cc3c2=O)cc1	-12	112	103	107
74	Cc1cc2cc(CNC(=O)Cc3cccc4ccccc34)ccc2n1C	.	105	95	100
75	O=S1(=O)CCC(N=Cc2cn(-c3ccccc3)nc2-c2ccccc2)C1 (centres undefined)	.	121	86	100

# Later entries:
No.	molecule	HCMV UL50-53 inh	Sa growth inh	Sa growth inh second temp	GIV-Gai inh
76	COc1ccc(N2CCN(C(=O)c3cnn(-c4ccc(OC)cc4)c3C3CCN(C(=O)OC(C)(C)C)CC3)CC2)cc1	.	109	88	110
77	CCC(O)(C#CCN1CCOCC1)CC	-3	116	88	106
78	Cc1nc2ccc(S(=O)(=O)NCC(=O)NCc3ccccc3)cc2s1	.	90	88	104
79	CCN(Cc1ccccc1)C(C)=O	0	120	88	.
80	CCN(CC)c1ccc(C(=O)NCCN)cc1	11	71	102	98
81	CN(C(=O)COC(=O)c1ccc(Cl)nc1)c1ccccc1	-6	87	84	.
82	Cn1c(CN2CCOCC2)nnc1Sc1c(-c2ccccc2)c2ccccc2[nH]c1=O	-17	102	86	98
83	Cn1c(SCc2ccccc2)nnc1-c1sc2ncccc2c1N	-80	.	.	100
84	O=C1Nc2ccccc2C(O)(C(=O)N2CCC3(CC2)OCCO3)N1c1ccccc1 (centres undefined)	-19	103	88	105
85	COc1ccc(NC(=O)c2ccc(OC)nc2OC)cc1	-26	84	83	107
86	CC(C)CN(CC(C)C)c1ncc(C(=O)O)cc1NS(=O)(=O)c1ccc(Br)cc1	-24	.	.	113
87	COc1ccccc1NC(=O)Cn1c(=O)n(Cc2nc(C)no2)c(=O)c2ccccc21	-5	.	.	114
88	Cc1ccc(C)c(/C(O)=C2\C(=O)C(=O)N(CCCn3ccnc3)C2c2cccnc2)c1 (centres undefined)	-8	128	85	.
89	Cc1cccc(CS(=O)(=O)CC2Nc3ccc(C(=O)NCc4ccccc4)cc3NC2=O)c1 (centres undefined)	.	75	86	109
90	Cc1cc(NC(=O)C(C)n2sc3ccccc3c2=O)ccc1Br (centres undefined)	.	100	99	101
91	COc1ccccc1NC(=O)N1CCN(c2cc(-c3ccccc3)nc3ncnn23)CC1	-6	111	77	101
92	O=C(CC1SC(N2N=C(c3ccccc3)CC2c2ccccc2)=NC1=O)Nc1ccccc1 (centres undefined)	.	106	83	100
93	COc1ccc(N2NC(=O)C(C)(C)C2=O)cc1	-50	.	.	103
94	Cc1cccc(-c2nnn3c2nc(NCCc2ccc(S(N)(=O)=O)cc2)c2ccccc23)c1	-42	99	92	109
95	CC1(C(=O)NC2CCCCC2)Cn2c(cc3sccc32)C(=O)N1Cc1ccccc1Cl (centres undefined)	-16	.	.	98
96	CCOc1ccccc1-n1nnc(-c2nsc(NC(=O)c3ccc(C)cc3)n2)c1C	.	111	74	104
97	CC(C)n1cnc(S(=O)(=O)N2CCCC(C(=O)N3CCN(c4ncccn4)CC3)C2)c1 (centres undefined)	-10	.	.	109
98	O=C1NC(=O)/C(=C\c2cccs2)S1	-22	91	43	.
99	Fc1ccc2nc(Nc3nc4ccccc4s3)sc2c1	-29	100	83	103
100	CCOC(=O)C1=C(C)N=c2s/c(=C\c3ccc(-c4ccc(C(=O)O)cc4)o3)c(=O)n2C1c1cccs1 (centres undefined)	-23	.	.	107

# Record cards (already shown).
# Cn1c(SCc2ccccc2)nnc1-c1sc2ncccc2c1N is listed as HCMV UL50-53 inh: -80; Sa growth inh: .; Sa growth inh second temp: .; GIV-Gai inh: 100
# Cc1nc2ccc(S(=O)(=O)NCC(=O)NCc3ccccc3)cc2s1 is listed as HCMV UL50-53 inh: .; Sa growth inh: 90; Sa growth inh second temp: 88; GIV-Gai inh: 104

# More results.
No.	molecule	HCMV UL50-53 inh	Sa growth inh	Sa growth inh second temp	GIV-Gai inh
101	Cc1cc(C)nc(NS(=O)(=O)c2ccc(NC(=O)c3ccccc3C)cc2)n1	-12	.	.	100
102	CCCc1ccc(S(=O)(=O)N2CCNCC2)cc1	-17	103	99	.
103	COc1ccc(NS(=O)(=O)c2ccc3c(c2)[C@H]2C=CC[C@H]2[C@@H](c2ccc(C(=O)O)cc2)N3)cc1	-33	130	59	127
104	CC(=O)N(CC(=O)O)c1ccccc1	-9	99	94	105
105	CC1CC(=O)N(CC(=O)NC2CCCCC2)c2cc(S(=O)(=O)N3CCCCC3)ccc2S1 (centres undefined)	-23	.	.	101
106	Cc1ccc(C2C(C#N)=C(SCC(=O)N3c4ccccc4CC3C)NC3=C2C(=O)CCC3)o1 (centres undefined)	-22	102	92	97
107	COc1cccc(NC(=O)n2ncc3c(C)cccc32)c1	-12	.	.	109

# Three of the entries above in order of the GIV-Gai inh value, ascending:
no.	mol	Sa growth inh	Sa growth inh second temp	GIV-Gai inh
101	Cc1cc(C)nc(NS(=O)(=O)c2ccc(NC(=O)c3ccccc3C)cc2)n1	.	.	100
104	CC(=O)N(CC(=O)O)c1ccccc1	99	94	105
107	COc1cccc(NC(=O)n2ncc3c(C)cccc32)c1	.	.	109

# Assay outcomes from PubChem.
